# Screening results deposited in PubChem by several laboratories.
# Yeast UUG start: modulators of start codon recognition fidelity in yeast; S. cerevisiae UUG-firefly luciferase reporter, luminescence/redox ratio; activity score, % at 18.7 µM; actives 0.13% (n = 350,000); AID 602363;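 active = replicate mean at a twofold rise or more, about +100% in these data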;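 also: firefly luciferase made from a UUG start codon reports start codon fidelity; reporter light over untreated wells divided by growth signal over untreated wells; some hits fall short of that in this replicate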
# Env fusion inh: blocks HIV Env-driven cell-cell fusion. HeLa-JRFL Env/CEM21 cell fusion, luciferase. inhibition, % at 12.3 µM. actives 1.1% (n = 360,000). AID 651610;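 active = mean replicate inhibition score of at least 50 and every replicate individually at or above 50; inconclusive = only one of the two criteria met; inactive = mean below 50 and not all replicates reaching 50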;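 also: 0% = plate neutral controls and 100% = maraviroc near 300 nM; one replicate is shown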
# PABP FP inh: PABP-poly(A) binding inhibition; AID 2014; PABP-poly(A) RNA binding, fluorescence polarization; inhibition, % at 35 µM; actives 1% (n = 290,000);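 active = 50% or more with normal probe brightness, or confirmed in later tests; inconclusive = above 50% with abnormal brightness, or retests that disagree; inactive = below 50% or failed in later tests; about a fifth of its hits are not listed in these tables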;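 also: calls also rest on retests at 20 µM and on dose response follow-up; controls were probe without protein and protein plus probe with vehicle; some compounds called inactive have numbers as strong as hits; many hits fall short of the cut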
# Target sequence (P11940 whole entry, looked up): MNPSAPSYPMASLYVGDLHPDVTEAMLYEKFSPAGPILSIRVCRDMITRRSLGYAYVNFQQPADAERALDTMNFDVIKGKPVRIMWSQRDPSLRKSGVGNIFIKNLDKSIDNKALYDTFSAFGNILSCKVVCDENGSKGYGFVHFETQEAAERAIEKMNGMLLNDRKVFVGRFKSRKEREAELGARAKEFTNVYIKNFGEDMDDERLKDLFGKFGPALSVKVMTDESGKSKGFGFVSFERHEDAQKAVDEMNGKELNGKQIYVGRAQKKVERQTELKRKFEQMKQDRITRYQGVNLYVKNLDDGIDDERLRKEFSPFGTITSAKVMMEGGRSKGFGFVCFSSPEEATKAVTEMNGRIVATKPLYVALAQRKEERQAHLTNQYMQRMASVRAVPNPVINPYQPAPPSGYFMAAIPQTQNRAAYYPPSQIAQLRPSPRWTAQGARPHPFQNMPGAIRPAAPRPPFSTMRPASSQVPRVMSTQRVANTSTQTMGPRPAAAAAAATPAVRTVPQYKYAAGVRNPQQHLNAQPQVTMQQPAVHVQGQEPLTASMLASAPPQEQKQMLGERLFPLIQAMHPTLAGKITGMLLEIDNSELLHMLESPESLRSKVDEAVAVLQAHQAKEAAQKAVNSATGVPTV
# CSC inhib: blocks cancer stem cells; cancer stem cell-like cells viability, luminescence; inhibition, % at 7.5 µM; actives 1.1% (n = 300,000); AID 2717;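 active = mean at 75% or more and at least half the replicates too; inconclusive = mean and replicates disagree; tested in HMLE shEcad cells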;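 also: 0% = median of negative and 100% = median of positive control wells; the first replicate is given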
# Rce1 inh: blocks yeast Ras-converting enzyme; yeast membranes, quenched prenylated peptide cleavage fluorescence; actives 0.27% (n = 290,000); calls only; Q03530;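 active = fall in fluorescence gain of 50% or more versus controls, with final raw signal at or below 3038400; inconclusive = same 50% fall but final raw signal above 3038400; inactive = fall in fluorescence gain under 50%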;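 also: plate controls were neutral control wells for no effect and wells lacking membranes for full effect; tested at 10 µM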
# Target sequence (Q03530 whole entry, looked up): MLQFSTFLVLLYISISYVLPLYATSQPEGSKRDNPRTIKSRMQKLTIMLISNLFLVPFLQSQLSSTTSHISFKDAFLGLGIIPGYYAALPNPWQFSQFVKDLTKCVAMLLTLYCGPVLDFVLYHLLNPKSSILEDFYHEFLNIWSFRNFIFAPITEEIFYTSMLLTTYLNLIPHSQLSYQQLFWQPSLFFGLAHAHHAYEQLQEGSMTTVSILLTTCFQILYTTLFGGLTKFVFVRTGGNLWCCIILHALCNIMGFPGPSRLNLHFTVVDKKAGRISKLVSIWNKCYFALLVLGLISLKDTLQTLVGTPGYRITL
# MT1-MMP act inh: blocks activation of human MT1-MMP; HT1080 RFP-PRO-GFP cells, GFP/RFP ratio fluorescence, overnight; percent of plate control window, DMSO zero; GFP/RFP ratio change, % at 20 µM; actives 0.061% (n = 360,000);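 active = GFP/RFP ratio change of at least 30% with cell ATP level not reduced by more than half and red fluorescence within 50% of control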; also: strong numbers were not always called active
#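 Assay system: HT1080 RFP-PRO-GFP cells. Benchmarks: DMSO vehicle wells and RFP-L50D-GFP reporter cell wells. Times: overnight cell settling, then overnight compound exposure, 37 °C, 5% CO2. Compound: 20 µM single dose, 1% DMSO. Read-out basis: GFP/RFP fluorescence ratio.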
# eIF4H FP inh: inhibitors of RNA binding by human eIF4H; actives 0.94% (n = 290,000); inhibition, % at 35 µM; eIF4H fluorescence polarization binding assay; Q15056; AID 2012;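 active = 50% or more with normal probe brightness, or confirmed in later tests; inconclusive = above 50% with abnormal brightness, or retests that disagree; inactive = below 50% or failed in later tests; about a fifth of its hits are not listed in these tables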;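 also: calls also rest on retests at 20 µM and on dose response follow-up; 0% = protein and probe with vehicle and 100% = probe without protein; strong numbers were not always called active; many hits fall short of the cut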
# MT1-MMP act inh RFP: also measured in MT1-MMP act inh; calls as there; RFP signal change, %; measured here: RFP expression control read;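 0 = vehicle wells; hits needed this value within 50% of zero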
# An asterisk follows results filed as active; i = inactive; u = inconclusive; x = not tested or not shown. The order is random. About 2.9% of those tested had a hit in this group.
1. O=S(=O)(c1cc(Cl)ccc1Cl)N1CCN(Cc2ccco2)CC1
2. CC1CCN(c2ccc(C(=O)NCc3ccc4c(c3)OCO4)cc2[N+](=O)[O-])CC1
3. O=C1CC(c2ccc(S(=O)(=O)NC3CC3)cc2)CN1 (centres undefined)
4. CC(C)(C)NS(=O)(=O)c1cc(C(=O)O)ccc1Cl
5. CCCC(=O)N1CCCC1(C)C(=O)Nc1ccc2cn[nH]c2c1 (centres undefined)
6. N#CCSc1ccccc1NC(=O)COc1ccc(-c2nnco2)cc1
7. COc1ccc([C@H]2C[C@@H](O)[C@H](n3cc(COC(=O)c4ccccc4)nn3)CN2C(=O)c2cccs2)cc1
8. Fc1ccccc1Cn1cnc(NC(=S)NCCc2ccccc2)n1
Compound	1	2	3	4	5	6	7	8
Yeast UUG start	-7	x	-23	14	-20	-15	-9	x
Env fusion inh	-12	22	1	-29	-5	-9	-1	x
PABP FP inh	8	-10	-6	-4	x	x	x	0
CSC inhib	-13	19	-1	-9	x	x	x	11
Rce1 inh	i	i	i	i	x	x	x	i
MT1-MMP act inh	-1	-2	2	0	-1	-52	3	x
MT1-MMP act inh RFP	1	-2	2	4	5	-3	3	x
eIF4H FP inh	8	3	-9	-2	x	x	x	10

9. CC(Oc1ccc2c(=O)c(-c3ccc(Cl)cc3)c(C(F)(F)F)oc2c1)C(=O)O (centres undefined)
10. Cc1ccnc(NS(=O)(=O)c2ccc(N=CC3=C(O)CC(C)(C)CC3=O)cc2)n1
11. Cc1cccc(C)c1NC(=O)c1ccc(CN2CCc3ccccc3C2)cc1
12. COc1ccc(/C=C2\Sc3ccc(C(=O)N4CCN(Cc5ccccc5)CC4)cc3N(C)C2=O)cc1OC
13. O=C(O)Cc1cn(Cc2ccc(F)cc2)c2ccccc12
14. CCn1nc(C)cc1C(=O)NC1CCCc2c1cnn2-c1ccc(C)c(C)c1 (centres undefined)
15. COc1ccc(C)cc1NC(=O)c1nnn(Cc2cc(C)ccc2C)c1N
16. Cn1c(=O)c(N)c2c3c(c(Br)ccc31)C(=O)c1ccccc1-2
Compound	9	10	11	12	13	14	15	16
Yeast UUG start	-9	-12	-4	6	x	-6	-15	-14
Env fusion inh	-13	9	x	20	-7	40	-9	-259
PABP FP inh	7	10	2	-2	-8	-13	6	u
CSC inhib	-3	x	-7	4	-6	30	42	42
Rce1 inh	i	i	i	i	i	i	i	i
MT1-MMP act inh	0	-9	-1	-15	1	1	3	-138
MT1-MMP act inh RFP	-3	6	-1	-30	4	-29	0	5
eIF4H FP inh	-2	-6	1	-10	12	-7	5	u

# Quoted at random: three compounds from above.
11. Cc1cccc(C)c1NC(=O)c1ccc(CN2CCc3ccccc3C2)cc1
5. CCCC(=O)N1CCCC1(C)C(=O)Nc1ccc2cn[nH]c2c1 (centres undefined)
14. CCn1nc(C)cc1C(=O)NC1CCCc2c1cnn2-c1ccc(C)c(C)c1 (centres undefined)
Compound	11	5	14
Yeast UUG start	-4	-20	-6
Env fusion inh	x	-5	40
PABP FP inh	2	x	-13
CSC inhib	-7	x	30
Rce1 inh	i	x	i
MT1-MMP act inh	-1	-1	1
MT1-MMP act inh RFP	-1	5	-29
eIF4H FP inh	1	x	-7

# (more compounds)
17. Cn1c(-c2ccc(C(=O)c3ccccc3)s2)nc2ccccc21
18. Cc1nc(N=Nc2ccc(O)cc2)n[nH]1
19. COc1ccc(-c2nnc(SCC(=O)Nc3cc(C)on3)n2C)cc1OC
20. O=C(OCc1ccc(COC(=O)c2ccc(O)cc2)cc1)c1ccc(O)cc1
21. CN(C)C(=O)CSc1nnc([C@H](Cc2c[nH]c3ccccc23)NC(=O)OC(C)(C)C)o1
22. O=C(O)C/C(=C\c1ccc(N2CCOCC2)c([N+](=O)[O-])c1)c1nc2ccccc2s1
23. COc1ccc(NC(=O)c2ccccc2O)c(OC)c1
24. O=[N+]([O-])c1nn(-c2ccc3c(c2)OCCO3)n(O)c1=NC1CCCC1
Compound	17	18	19	20	21	22	23	24
Yeast UUG start	-24	x	-12	-39	1	-5	7	-13
Env fusion inh	-396	3	x	x	-89	8	x	-122
PABP FP inh	x	-4	-4	-6	-5	u	1	-2
CSC inhib	5	18	3	7	3	-3	6	-5
Rce1 inh	i	i	i	i	i	i	i	i
MT1-MMP act inh	6	2	4	-7	1	1	14	1
MT1-MMP act inh RFP	-5	7	3	1	4	1	2	-2
eIF4H FP inh	x	-1	0	8	-7	u	6	-8

25. O=C(c1ccc(Br)cc1)N1CCCc2ccccc21
26. Cc1ccc(C(OCC(C)(C)C[N+](C)(C)C)c2ccccc2)cc1 (centres undefined)
27. O=[N+]([O-])c1ccc2nc(NN=Cc3ccc(O)cc3)sc2c1
28. O=C(Nc1cccc(S(=O)(=O)NC2=NCCC2)c1)c1ccc(C(F)(F)F)cc1
29. CC1(C(=O)NS(=O)(=O)c2cccc(C#N)c2)CCN1C(=O)C1(c2ccccc2)CC1 (centres undefined)
30. CC1=CCC2C(=O)N(Cc3ccccc3)C(=O)C2C1 (centres undefined)
31. c1ccn(CCc2ccncc2)c1
32. CC(=O)NC(Cc1ccc(C)cc1)C(=O)NC1CCN(C(=O)NCc2ccccc2)CC1 (centres undefined)
Compound	25	26	27	28	29	30	31	32
Yeast UUG start	1	x	-7	-11	-14	x	-30	-13
Env fusion inh	-5	13	-164	21	15	x	-3	-28
PABP FP inh	-18	2	x	x	x	12	x	-4
CSC inhib	-15	26	x	-18	x	-14	x	x
Rce1 inh	i	i	x	x	x	i	x	i
MT1-MMP act inh	1	-6	4	-5	0	5	3	2
MT1-MMP act inh RFP	-3	-7	-17	-23	4	2	0	2
eIF4H FP inh	4	-2	x	x	x	-7	x	-6

33. COc1ccc(-c2nnc(NC(=O)C(C)C)s2)c(OC)c1
34. CCN=C1SC(CC(=O)Nc2ccc(N3CCOCC3)cc2)C(=O)N1CC (centres undefined)
35. O=C(COC(=O)CNC(=O)c1ccccc1Cl)Nc1ncc(C(F)(F)F)cc1Cl
36. CCOC(=O)c1ccc(-n2c(C)nc3ccccc3c2=O)cc1
37. C[C@H]1COC(=O)[C@H](CC(=O)OC(C)(C)C)C/C=C\C[C@@H](CC(=O)NCCO)C(=O)N1
38. CC(=O)NC1C(Oc2ccccc2C)OC2COC(c3ccco3)OC2C1O (centres undefined)
39. O=C(O)C1CCC(CNCc2ccccc2Cl)CC1 (centres undefined)
40. Cc1nn(-c2ccccc2)nc1C(=O)NN
Compound	33	34	35	36	37	38	39	40
Yeast UUG start	0	4	x	x	-9	-11	x	-19
Env fusion inh	x	x	-31	x	4	0	16	5
PABP FP inh	-5	-8	3	6	x	-2	0	11
CSC inhib	-2	0	-6	-35	-15	-5	0	0
Rce1 inh	i	i	i	i	x	i	i	i
MT1-MMP act inh	2	-2	3	4	-2	6	7	-2
MT1-MMP act inh RFP	1	5	3	5	1	8	1	4
eIF4H FP inh	-4	-3	-2	6	x	-4	9	-5

41. O=C(CN1CCN(c2ccccn2)CC1)Nc1cccc(Cl)c1Cl
42. Cc1cc(=O)n(C(C)(C)C)c(=O)n1Cc1ccccc1
43. COc1cc(C(=O)Nc2sc3c(c2C(=O)O)CCC(C)C3)cc(OC)c1OC (centres undefined)
44. Cn1cc(CN2CCCC(C(=O)c3nccn3C)C2)c(-c2cccc(Cl)c2)n1 (centres undefined)
45. COC(=O)/C(C#N)=C/c1ccc(N2CCOCC2)c([N+](=O)[O-])c1
46. CC(C)CCCN1C(Nc2ccccc2)=NC[C@@H]1CC(C)C
47. Cc1ccccc1OCC(=O)OCC(=O)Nc1ccc(N2CCOCC2)cc1
48. CCOc1ccc(C(=O)NCC(=O)OC2CCOC2=O)cc1OCC (centres undefined)
Compound	41	42	43	44	45	46	47	48
Yeast UUG start	-13	-27	-16	3	-13	-9	-15	3
Env fusion inh	1	-7	3	14	2	8	9	x
PABP FP inh	-3	-1	6	-10	2	-2	15	-1
CSC inhib	1	-11	23	-8	-1	4	-6	4
Rce1 inh	i	i	i	i	i	i	i	i
MT1-MMP act inh	6	-1	-2	x	2	2	-1	1
MT1-MMP act inh RFP	-4	0	-2	x	0	1	7	0
eIF4H FP inh	-4	-8	0	-4	-3	5	3	-5

49. COc1ccc(-c2nc3ccccc3o2)cc1NC(=O)c1ccc(Br)o1
50. C=CCNC(=O)/C(C#N)=C/c1c(N2CCN(c3cccc(Cl)c3)CC2)nc2c(C)cccn2c1=O
51. O=C(CNCCO)NC12CC3CC(CC(C3)C1)C2
52. COc1cc(C2C3=C(CC(C)(C)CC3=O)OC3=C2C(=O)CC(C)(C)C3)cc([N+](=O)[O-])c1O
53. O=C(N/N=C/c1ccc(O)cc1)c1ccc(NC(=O)c2ccccc2Br)cc1
54. Cc1ccc(Nc2ncccc2C(N)=O)cc1[N+](=O)[O-]
55. COc1ccc(C2(CNC(=O)c3ccccc3[N+](=O)[O-])CCOCC2)cc1
56. COC(=O)c1nc(NC(=O)C(C)C)n[nH]1
Compound	49	50	51	52	53	54	55	56
Yeast UUG start	-16	-12	1	x	-7	x	7	-17
Env fusion inh	x	13	33	0	x	-66	12	x
PABP FP inh	-9	0	-2	-2	-2	-4	0	-3
CSC inhib	-3	7	-7	-7	-4	-15	-9	-19
Rce1 inh	i	i	i	i	i	x	i	i
MT1-MMP act inh	5	-4	-1	1	1	1	0	5
MT1-MMP act inh RFP	10	-6	4	-5	4	-2	0	2
eIF4H FP inh	-21	-3	2	7	-2	-4	4	4

57. CC(C)NC(=S)N/N=C/c1sc(N2CCCCC2)nc1-c1cccs1
58. COc1ccc2oc(C(=O)N(CC(C)C)C3CCS(=O)(=O)C3)c(C)c2c1 (centres undefined)
59. COc1cc(C(=O)N[C@@H](Cc2c[nH]c3ccccc23)C(=O)O)cc(OC)c1OC
60. Cc1nnnn1-c1ccc(CC(=O)O)cc1
61. CCC(=O)c1ccc(OCC(=O)Nc2ccccc2N2CCCCC2)cc1
62. COc1cc(C)nc(SCC(N)=O)n1
63. O=C(NCc1ccco1)/C(=C/c1ccc(C(F)(F)F)cc1)c1nc2ccccc2[nH]1
64. Cc1ccc(N2C(=O)CC(N3CCSCC3)C2=O)c(C)c1 (centres undefined)
Compound	57	58	59	60	61	62	63	64
Yeast UUG start	-23	-16	5	x	8	-8	x	x
Env fusion inh	-29	4	-2	10	-6	x	-53	7
PABP FP inh	8	x	2	3	4	6	-3	-5
CSC inhib	-10	-15	1	-6	7	-10	38	-9
Rce1 inh	i	i	i	x	i	i	i	i
MT1-MMP act inh	-20	1	0	2	0	-2	-20	1
MT1-MMP act inh RFP	-7	1	1	8	-7	2	-2	2
eIF4H FP inh	2	x	-18	-1	-3	-4	35	4

65. CCC/C(=N\NC(=O)c1cccc(C)c1)c1ccccc1
66. COC(=O)c1cc(N2C(=O)C3C4C=CC(CC4)C3C2=O)ccc1Cl (centres undefined)
67. O=C1CSc2ccc(C(=O)NCCc3ccc(Cl)cc3Cl)cc2N1
68. Cc1cccc(CN2C(=O)[C@@H]3Cc4c([nH]c5ccccc45)C(C)(C)N3C2=O)c1
69. CCOC(=O)c1c(-c2cccc(C)c2)csc1NC(=O)C1CC=CCC1C(=O)O (centres undefined)
Compound	65	66	67	68	69
Yeast UUG start	-5	-9	-18	-6	x
Env fusion inh	7	1	x	-17	x
PABP FP inh	-9	-8	x	x	-7
CSC inhib	-8	13	42	76*	28
Rce1 inh	i	i	x	i	i
MT1-MMP act inh	0	-8	-6	13	0
MT1-MMP act inh RFP	8	-5	-3	-4	1
eIF4H FP inh	-12	6	x	x	2
